CtBP-E1A blk: inhibitors of CtBP/E1A interaction. 0.49% of 340,000 active. activity change, % (no concentration beside the values). AlphaScreen GST-E1A/His-CtBP binding, 1536-well; active compounds read low; control for the full effect not named in the record; in the data active means activity change below about -65%; inconclusive means about -30% to -65%; inactive means above about -30%; note: % is set by controls: 0 for no effect and ±100 for the full control effect
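Homogeneous bead-based format: GST-tagged E1A captured on glutathione donor beads, His-tagged CtBP on nickel acceptor beads; compounds precede bead addition by 2 h at 37 °C.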
D2 potentiator: potentiates the human D2 dopamine receptor allosterically; DiscoveRx D2 beta-arrestin cells, luminescence, 90 min; 100% = 57 uM dopamine signal; 0.23% of 360,000 active; AID 624464; potentiation, % (no concentration beside the values); P14416; active = potentiation of 50% or more; inconclusive = 30% to 50%; inactive = 30% or less;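 note: compound concentration not given in the record; tested on top of an EC20 dose of dopamine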
Target sequence (P14416 whole entry, looked up): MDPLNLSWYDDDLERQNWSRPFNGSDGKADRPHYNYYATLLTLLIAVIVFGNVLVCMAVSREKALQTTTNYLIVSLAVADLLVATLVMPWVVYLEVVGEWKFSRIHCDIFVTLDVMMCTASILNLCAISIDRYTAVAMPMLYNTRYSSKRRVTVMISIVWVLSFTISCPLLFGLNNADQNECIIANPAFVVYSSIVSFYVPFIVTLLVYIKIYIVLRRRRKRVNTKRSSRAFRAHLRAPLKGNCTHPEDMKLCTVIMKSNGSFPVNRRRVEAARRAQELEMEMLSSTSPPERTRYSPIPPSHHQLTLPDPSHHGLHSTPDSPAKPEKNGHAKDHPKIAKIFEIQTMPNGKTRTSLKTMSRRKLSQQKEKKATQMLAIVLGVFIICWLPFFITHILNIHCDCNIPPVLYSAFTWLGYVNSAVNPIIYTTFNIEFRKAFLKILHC
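PathHunter D2 cells, attached overnight at 37 deg C, received compound in DMSO plus dopamine at EC20 (50 nM final) for 90 min at 37 deg C. Beta-arrestin recruitment was read as luminescence after 1 h with detection reagent at ambient temperature.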
TRPV1 PAM: human TRPV1 potentiation. TRPV1-expressing cells, Fluo-8 calcium influx, capsaicin EC20 potentiation; host cell line not named in the record; control for the full effect not named in the record. 0.02% of 320,000 active. potentiation, % at 8.33 µM. Q8NER1; active means potentiation above 80%; inconclusive means 30% to 80%; inactive means below 30%; note: 0% is about no effect
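TRPV1-expressing cells were cultured overnight at 35.5C and loaded with Fluo-8 calcium dye for 40 to 90 min at room temperature. After a 10 s baseline, compound was added and calcium influx was read kinetically for 3 min (ex 480/em 520 nm).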
Six1-Eya2 inh: Six1/Eya2 interaction inhibition. Q15475+O00167. AlphaScreen GST-Six1/His-Eya2 binding, biochemical; active compounds read low; control for the full effect not named in the record. activity change, % (no concentration beside the values). 0.56% of 360,000 active. AID 651725; in the data active = activity change below about -65%; inconclusive = about -30% to -65%; inactive = above about -30%; note: % is set by controls: 0 for no effect and ±100 for the full control effect
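GST-Six1 + His-Eya2 (5X stock: 250/500 nM); Tris pH 8.0, 300 mM NaCl, 0.05% BSA, 0.02% Tween 20; GSH donor/Ni acceptor beads; 1 h 37 °C dark; AlphaScreen readout.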
TRPML1 inh: human mucolipin-1 channel inhibition | 0.02% of 390,000 active | Q9GZU1 | TRPML1-inducible cells, Ca2+ dye fluorescence, FDSS; active compounds read low; inhibition of EC80 agonist-evoked calcium signal | activity change, negative = inhibition, % (test concentration not listed) | AID 624415; in the data active means activity change below about -50%; inconclusive means about -30% to -50%; inactive means above about -30%;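 note: stimulus is agonist 54-4 at its EC80 concentration; % is set by controls: 0 for no effect and ±100 for the full control effect; compound concentration not given in the record; the text of the record puts the active cut at -80%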
Target sequence (Q9GZU1 whole entry, looked up): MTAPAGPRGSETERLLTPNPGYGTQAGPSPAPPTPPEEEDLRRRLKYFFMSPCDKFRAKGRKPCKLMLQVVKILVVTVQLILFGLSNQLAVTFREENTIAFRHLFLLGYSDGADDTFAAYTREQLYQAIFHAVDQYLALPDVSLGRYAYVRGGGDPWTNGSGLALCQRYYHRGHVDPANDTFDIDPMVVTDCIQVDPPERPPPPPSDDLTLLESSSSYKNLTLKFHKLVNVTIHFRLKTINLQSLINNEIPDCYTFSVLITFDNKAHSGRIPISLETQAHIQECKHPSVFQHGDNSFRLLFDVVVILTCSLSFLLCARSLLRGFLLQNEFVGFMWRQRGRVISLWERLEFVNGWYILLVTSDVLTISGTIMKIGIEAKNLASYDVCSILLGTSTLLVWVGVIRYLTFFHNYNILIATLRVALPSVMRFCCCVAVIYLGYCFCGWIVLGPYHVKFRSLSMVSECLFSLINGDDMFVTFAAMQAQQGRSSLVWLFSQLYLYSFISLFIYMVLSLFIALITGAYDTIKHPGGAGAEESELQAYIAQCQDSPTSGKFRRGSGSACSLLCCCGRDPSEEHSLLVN
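Tet-induced TRPML1-DL cells loaded with Ca8 no-wash calcium dye were read kinetically on FDSS. Compound addition was followed by EC80 agonist 54-4 (4 uM final); inhibition was read over 110 s.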
TRPML1 agonist: activates the human TRPML1 channel. 0.12% of 410,000 active. Q9GZU1. TRPML1-expressing cells, Ca2+ dye fluorescence, FDSS; host cell line not named in the record; reference of the full effect not given here. activation, % (no concentration beside the values); in the data active = activation above about 50%; inconclusive = about 30% to 50%; inactive = below about 30%; note: 0% is about no effect; the text of the record puts the active cut at 80%
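In this qHTS format, compounds were pin-transferred onto Ca8-dye-loaded TRPML1-DL cells induced with Tet overnight, and intracellular Ca2+ fluorescence was recorded kinetically for 110 s after a 10 s baseline. A subsequent 4uM final 54-4 (EC80) addition followed by a second 110 s read served as the antagonist phase.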
* = called active by the depositor; ? = inconclusive; / = not tested or not shown; & = joins results of further samples.

cpd | Compound | CtBP-E1A blk | D2 potentiator | TRPV1 PAM | Six1-Eya2 inh | TRPML1 inh | TRPML1 agonist
1 | CC(C)(C)NC(=O)Cn1nnnc1-c1nonc1N | 1 | -7 | -5 | -2 | 1 | -1.1
2 | COc1ccc(/C=N/Nc2cc(N3CCCC3)nc(N3CCCC3)n2)cc1 | -23 | -19 | 1 | ? | -2 | 0.4
3 | Cc1cccn2c(=O)c(/C=C(\C#N)S(=O)(=O)c3ccccc3)c(N3CCN(Cc4ccccc4)CC3)nc12 | -5 | -9 | 13 | -4 | 5 | -1.3
4 | CCc1ccccc1NC(=O)CNC(=O)c1ccc(S(=O)(=O)NCc2ccco2)cc1 | -7 | -11 | / | -2 | 2 | 0.2
5 | COc1ccc(-c2nnc(SC(C(=O)c3c[nH]c4ccccc34)c3ccccc3)n2N)cc1OC (stereo not given) | -2 | -4 | -3 | -5 | -5 | 1.0
6 | COc1cc(OC)nc(NC(C)=O)n1 | 8 | -12 | 2 | -1 | 14 | 0.2
7 | NC(=S)NNC(=O)Nc1ccc(Cl)c(Cl)c1 | -29 | 5 | -8 | 1 | 0 | -0.1
8 | Cn1nc(C(C)(C)C)cc1NC(=O)C1(C)CCN1C(=O)c1ccccc1CCc1ccccc1 (stereo not given) | -1 | -11 | / | 0 | 35 | -0.2
9 | COC(=O)c1ccc2nc(-c3cccc(Br)c3)c(Cc3ccsc3)n2c1 | 6 | -4 | / | 3 | 43 | 0.3
10 | O=C(NCCC(=O)N1CCN(c2ccccc2O)CC1)c1ccc(Br)cc1 | -19 | -1 | -6 | 2 | -5 | -0.1
11 | Cc1ccc2c(CC(=O)OCc3cc(=O)n4c(n3)sc3ccccc34)coc2c1 | 2 | -13 | 0 | -10 | 6 | -0.5
12 | CC(=O)c1ccc(NC(=O)c2ccn(C(=O)OCC(C)C)n2)cc1 | -19 | 0 | 2 | ? | -12 | -0.7
13 | C=CCn1c(SCc2nc3ccccc3c(=O)[nH]2)nc2scc(C3CC3)c2c1=O | 4 | -3 | 2 | -8 | -11 | 0.9
14 | NS(=O)(=O)c1ccc(NC(=O)/C=C/c2ccccc2Cl)cc1 | 12 | -2 | -5 | 14 | 15 | -0.2
15 | O=C(Nc1c(C(=O)N2CCOCC2)cnn1-c1ccccc1)c1ccco1 | 13 | 0 | 3 | 2 | -2 | 0.2
16 | NCCCNc1nc(N)c([N+](=O)[O-])c(NC2CCCCC2)n1 | / | -36 | 9 | -1 | 48 | 0.5
17 | COC(=O)C1CC2=C(CCCC2=O)NC1=O (stereo not given) | 9 | 1 | / | 3 | 13 | 0.0
18 | CC(=O)c1ccc(NC(=O)c2cc(Cl)sc2Cl)cc1 | 1 | -19 | -27 | -3 | -1 | 1.3
19 | O=[N+]([O-])c1ccc(S(=O)(=O)N(CCCN2CCOCC2)Cc2cccs2)cc1 | / | -12 | -7 | -1 | -3 | 0.4
20 | Cc1onc(-c2ccccc2Cl)c1C(=O)Nc1sc2c(c1C#N)CCC2 | -11 | 3 | 15 | 1 | -6 | 0.6
21 | NNC(=O)c1sc(-c2ccc(Cl)cc2)cc1N | 0 | 11 | 6 | 12 | -7 | 0.4
22 | COc1ccc(-n2c(COc3ccc(C)cc3)n[nH]c2=S)cc1 | / | -4 | ? | 5 | 1 | -0.5
23 | O=C(O)CCc1ccc(-c2ccccc2)n1-c1ccc(C(=O)O)cc1 | / | -10 | 12 | -1 | 4&-25 | 0.5&0.3
24 | Cc1cc(NCCCN2CCOCC2)n2nc(C)c(-c3ccccc3)c2n1 | -11 | -11 | -7 | -21 | 24 | 0.2
25 | O=c1[nH]c(NNC(=S)NCc2ccccc2)nc2c1C1(CCCCC1)Cc1ccccc1-2 | / | -10 | 11 | -15 | -22 | 1.2
26 | CCc1ccccc1NC(=O)CN(C)C(=O)CSc1nn(-c2ccccc2)c(=S)s1 | 4 | -21 | 7 | 2 | 1 | 0.7
27 | CC1(C)Cc2cccc(OCC(=O)Nc3cccnc3Cl)c2O1 | 6 | 10 | -3 | 0 | -19 | 4.7
28 | Cc1cc(=O)oc2c1ccc1oc(/C(=N/O)c3ccccc3)c(C)c12 | -1 | 15 | 13 | -5 | 52 | 2.5
29 | Cc1cccc(C(=O)OCC(=O)NC(=O)NC2CCCCC2)c1 | 5 | -41 | / | -1 | 8 | -1.2
30 | CC1CCCCN1S(=O)(=O)c1coc(C(N)=O)c1 (stereo not given) | -2 | -3 | / | 6 | 25 | 2.1
31 | C/C(=N/NC(=O)c1ccc(C)s1)c1cccc(NC(=O)c2ccoc2C)c1 | -17 | -8 | -10 | -11 | 1 | 0.2
32 | CCOC(=O)/C(=N\Nc1ccccc1[N+](=O)[O-])c1csc(N)n1 | / | -27 | 3 | ? | 3 | 4.3
33 | COc1ccc(OC)c(NC(=O)CSc2nn3c(=O)c(C)nnc3s2)c1 | -88* | 0 | -7 | ? | -1 | -0.3
34 | COCCNC(=O)c1cc(Br)ccc1Cl | 8 | -5 | -2 | 11 | -10 | -0.2
35 | Cc1cc2c(=O)n(CC(=O)N3CCN(c4ccc(F)cc4)CC3)cnc2s1 | 4 | -10 | 8 | -1 | -6 | -0.8
36 | CC(C)C(NS(=O)(=O)c1cccc(C(F)(F)F)c1)C(=O)O (stereo not given) | 3 | -1 | 1 | 6 | 4 | 0.5
37 | CCOc1ccc(S(=O)(=O)NCCN2CCOCC2)c2ccccc12 | -5 | -12 | 9 | -5 | -5 | 0.3
38 | COc1cc(C(=O)NCCN2C(=O)S/C(=C\c3cccs3)C2=O)cc(OC)c1OC | -7 | 3 | 2 | -7 | 7 | 1.2
39 | CC(C)CN(Cc1c(O)ccc2ccccc12)CC(C)C | -4 | 0 | 10 | -1 | 7 | 1.1
40 | COC(=O)[C@]1(C)N[C@H](CN(C)C(=O)Nc2ccc(Cl)cc2)[C@@H]2C(=O)N(C)C(=O)[C@@H]21 | 5 | / | / | 0 | -4 | -0.4

Compound profiles (already shown). Screens in order: CtBP-E1A blk, D2 potentiator, TRPV1 PAM, Six1-Eya2 inh, TRPML1 inh, TRPML1 agonist
COc1cc(C(=O)NCCN2C(=O)S/C(=C\c3cccs3)C2=O)cc(OC)c1OC is listed as -7, 3, 2, -7, 7, 1.2
Cc1cccn2c(=O)c(/C=C(\C#N)S(=O)(=O)c3ccccc3)c(N3CCN(Cc4ccccc4)CC3)nc12 is listed as -5, -9, 13, -4, 5, -1.3
CC1CCCCN1S(=O)(=O)c1coc(C(N)=O)c1 (stereo not given) is listed as -2, -3, /, 6, 25, 2.1
COc1cc(OC)nc(NC(C)=O)n1 is listed as 8, -12, 2, -1, 14, 0.2
CC(=O)c1ccc(NC(=O)c2cc(Cl)sc2Cl)cc1 is listed as 1, -19, -27, -3, -1, 1.3

(further entries)
cpd | Compound | CtBP-E1A blk | D2 potentiator | TRPV1 PAM | Six1-Eya2 inh | TRPML1 inh | TRPML1 agonist
41 | CCCSc1nc(SCC(=O)NCc2ccccc2)c2c3c(sc2n1)COC(C)(C)C3 | 2 | 7 | -10 | 2 | 17 | 1.7
42 | CCN(CC)Cc1cc(C(C)(C)C)cc(N2CCOCC2)c1O | -6 | -3 | / | 3 | -13 | 0.8
43 | Cc1ccc(/C=N/NC(=O)Cc2ccc(O)cc2)s1 | -2 | -11 | 14 | -11 | -3 | 1.0
44 | CCCC(=O)N1CCN(c2ccc(NC(=O)c3ccc4c(c3)OCCO4)cc2)CC1 | 12 | -7 | 5 | 4 | 2 | -1.2
45 | COc1cc(OC)c(C2Oc3nc(SC)nnc3-c3ccccc3N2C(C)=O)cc1OC (stereo not given) | 2 | -3 | 23 | -4 | -5 | 0.3
46 | CCNc1nc(NCC)n2c(SCC(=O)Nc3ccc(C(F)(F)F)cc3[N+](=O)[O-])nnc2n1 | -6 | -4 | 8 | -2 | 0 | 1.0
47 | NC(=O)CCCC1=NS(=O)(=O)c2ccccc2N1 | 3 | -34 | -14 | 3 | -16 | 0.5
48 | Cc1cccc(C)c1NC(=O)CNC(=O)c1ccc(COc2ccccc2)cc1 | / | 5 | 2 | 4 | -2 | -1.3
49 | O=c1[nH]c(/C=C/c2ccc(OC(F)F)cc2)nc2c1cnn2-c1ccccc1 | 3 | -11 | 4 | -4 | 16 | 0.9
50 | Cc1ccc(S(=O)(=O)N2CCN(C(=O)COC(=O)COc3ccccc3)CC2)cc1 | -2 | 4 | -4 | 1 | 15 | -0.4
51 | CCOc1ccccc1N(CC(=O)NCCSc1ccccn1)S(=O)(=O)c1ccccc1 | -8 | -4 | -1 | 0 | -8 | -0.1
52 | O=c1[nH]c(Nc2ccc3c(c2)OCCO3)nnc1Cc1ccc(Cl)cc1 | -10 | -4 | 21 | 7 | 17 | 0.6
53 | CC(NS(=O)(=O)c1ccc(CCC(=O)NCC2CCCO2)cc1)c1ccccc1 (stereo not given) | 7 | 0 | -8 | 16 | 33 | -0.7
54 | C=CCn1c(SCC(=O)NC(=O)Cc2ccccc2)nnc1-c1ccccc1F | 0 | -5 | / | 8 | 11 | 1.0
55 | O=C(CCc1nnc(CCCCc2ccccc2)o1)NCCC1CCCCO1 (stereo not given) | 3 | -3 | -2 | 0 | -3 | 0.9
56 | C=CCn1cc(C(=O)N2CCN(C)CC2)c(=O)c2cc(S(=O)(=O)N(CC)CC)ccc21 | 9 | 4 | -1 | 24 | -3 | 0.5
57 | COc1ccc(C(=O)Nc2ccc(S(=O)(=O)NC(C)(C)C)cc2)cc1[N+](=O)[O-] | -14 | -4 | -4 | -6 | 46 | 0.0
58 | O=C(Nc1ccc(F)cc1F)N1CCN(CCc2ccccc2)CC1 | 5 | -17 | -16 | -1 | -6 | -0.6
59 | CCC(c1nnnn1-c1ccc2c(c1)OCCO2)N1CCc2ccccc2C1 (stereo not given) | 0 | / | / | -12 | / | -0.9
60 | COc1ccc(-n2cnnc2SCC(=O)Nc2cccc(S(=O)(=O)N3CCCCC3)c2)cc1 | -8 | -18 | 9 | -4 | 7 | 1.8
61 | CC12CCC(C(=O)O)(C/C1=N\O)C2(C)C (stereo not given) | 6&-1 | -5&7 | -1&-11 | 4&9 | -8&20 | -0.3&-0.2
62 | COc1ccc([C@@H]2CC=C(C(=O)O)[C@H](c3ccccc3)N2S(=O)(=O)c2ccccc2C)cc1 | / | -15 | 6 | -1 | -11 | -0.3
63 | O=C(Nc1ccc(Cl)c(C(F)(F)F)c1)[C@@H]1CC=C[C@@H]2CCN(Cc3ccc(Cl)c(Cl)c3)C(=O)[C@@H]21 | -24 | -9 | / | -5 | 10 | 0.7&-0.5
64 | Cc1snc(SCC(=O)N/N=C(\N)COc2ccc(F)cc2)c1C#N | -1 | -2 | 13 | 3 | 2 | -0.1
65 | O=C(OCC(=O)N1CCN(C(=O)c2ccco2)CC1)c1ccc(S(=O)(=O)N2CCCCC2)cc1 | -13 | 29 | 11 | -2 | 18 | -0.4
66 | O=C(CSCC(=O)NN=Cc1ccccc1)NN=Cc1ccccc1 | -3 | -6 | / | -7 | 2 | -0.2
67 | CCOC(=O)CN1C(=O)N[C@@H](CCc2ccccc2)C(C(=O)OC)=C1C | 2 | -1 | / | 26 | ? | 0.3
68 | C#Cc1ccc(CN2CCC(N3CCC(C(=O)NCc4ccccn4)CC3)CC2)cc1 | 3 | -11 | 9 | -4 | -1 | 0.6
69 | Cc1ccccc1NC(=O)Cc1nc(COC(=O)c2ccc(S(C)(=O)=O)c([N+](=O)[O-])c2)cs1 | / | -10 | 5 | -8 | 1 | -0.4
